# High-throughput results deposited in PubChem BioAssay by GNF / Scripps  Winzeler lab.
# P. yoelii liver = exo-erythrocytic parasite development inhibition – imaging, Malaria Box, P. yoelii, HepG2-A16-CD81EGFP, dose response (AID 602156). calls after a first round at 10 µM; hits with a dose series show IC50 in µM. 5,700 compounds, 4.8% hits. P. yoelii liver stage in HepG2-A16-CD81EGFP, imaging; first-round cut-off not given here; in the data active = a potency from the dose series;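 also: infected cells exposed to compound for 48 hours before fixation; stained parasite area by imaging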
# * hit, by the source's call; i = inactive. This is a subset; the hit share may differ from the screen's.
# A first look:
Structure	P. yoelii liver
CN(C)CCNC(=O)c1ccc(-c2cncc(NCc3ccc(Cl)c(Cl)c3)c2)cc1	i
CN(C)c1ccc(C=CC=Cc2cccc[n+]2C)cc1	i
CC(C)OC(=O)CSc1nnc(CNc2nc(-c3ccccc3)cs2)n1C	i
Cc1cc(NCCc2ccccc2)nc2cc(O)ccc12	i

# The listing, from the first entry:
Structure	P. yoelii liver
CN(C)CCNC(=O)c1ccc(-c2cncc(NCc3ccc(Cl)c(Cl)c3)c2)cc1	i
CN(C)c1ccc(C=CC=Cc2cccc[n+]2C)cc1	i
CC(C)OC(=O)CSc1nnc(CNc2nc(-c3ccccc3)cs2)n1C	i
Cc1cc(NCCc2ccccc2)nc2cc(O)ccc12	i
Nc1c(C(=O)Nc2ccc(C3=NCCN3)cc2)cccc1C(=O)Nc1ccc(C2=NCCN2)cc1	i
Oc1ccc(Nc2nc(N3CCCC3)c3ccccc3n2)cc1	i
OCc1nc2ccccc2n1Cc1ccccc1F	i
O=C(C1CC1)n1cc(C(=O)C(F)(F)F)c2ccccc21	i
Cc1ccc(Cn2c(N3CCC(C(=O)NCc4ccccn4)CC3)nc3ccccc32)cc1	i
O=C(O)C=CC(=O)N(C1CCCCC1)C1CCCCC1	i

# Reformatted with the structure last: part of the list above
P. yoelii liver	compound
i	Oc1ccc(Nc2nc(N3CCCC3)c3ccccc3n2)cc1
i	OCc1nc2ccccc2n1Cc1ccccc1F
i	O=C(C1CC1)n1cc(C(=O)C(F)(F)F)c2ccccc21
i	Cc1ccc(Cn2c(N3CCC(C(=O)NCc4ccccn4)CC3)nc3ccccc32)cc1

# (cont.)
Structure	P. yoelii liver
CCOC(=O)c1c[nH]c2ccc(C)cc2c1=O	i
COC(=O)c1c(NC(=O)c2ccc(S(=O)(=O)N3CCOCC3)cc2)sc2c1CCN(C(C)=O)C2	i
CCCC(C)C(C(=O)Nc1c(C)cccc1C)N1C(=O)c2cc(NC(C)=O)ccc2NC(=O)[C@@H]1CCC(=O)O (stereo partly drawn)	i
Cc1cccnc1NC(c1ccc([N+](=O)[O-])cc1)c1ccc2cccnc2c1O (stereo not drawn)	i
CCC(C(=O)N1CCN(Cc2ccccc2)CC1)c1ccccc1 (stereo not drawn)	i
CCN1CCN(c2cc(C)c3cc(NC(=O)c4cncc(Br)c4)ccc3n2)CC1	i
COc1ccccc1-n1c(-c2ccccc2O)n[nH]c1=S	i
CCC(/C=C1\Sc2ccc(OC)cc2N1CCCS(=O)(=O)O)=C\c1sc2ccc(OC)cc2[n+]1CCCS(=O)(=O)O	0.0112µM*
Cc1ccc(S(=O)(=O)c2c(COC(=O)c3cccc(C)c3)c(-c3ccccc3)nn2C)cc1	i
Cc1cc(C)nc(N=C(N)Nc2cccc(O)c2)n1	0.152µM*

# Later entries:
Structure	P. yoelii liver
C=CCNC(=O)c1ccc2c(c1)N=C(c1ccc(F)cc1)N(CCCC)C2	i
O=C(NCCc1ccccc1)C1CCC(Cn2c(=S)[nH]c3ccccc3c2=O)CC1 (stereo not drawn)	i
CN1CCN(c2nc(NN=Cc3cc(I)ccc3O)nc(Nc3ccc([N+](=O)[O-])cc3)n2)CC1	i
Cc1onc(-c2ccccc2Cl)c1C(=O)Nc1cc(Cl)ccc1Cl	i
COc1ccc(-c2csc3nc(COc4cccc(C)c4)nn23)c(O)c1	i
CCCN(C(=O)C(=O)Nc1ccc2nc3n(c(=O)c2c1)CCCCC3)c1ccc(OCC)cc1	i
CC(C)(C[N+](C)(C)C)C1OC2CCCCC2C2C=CCCC21 (stereo not drawn)	i
C=CCn1nc(C(=O)N2CCCC2)c2c1CCC(N1CCCCCC1)C2 (stereo not drawn)	i
COc1ccc(C=Cc2ccc3ccccc3[n+]2C)cc1	i
COc1cc(C(=O)Nc2c3c(nn2-c2cc(C)cc(C)c2)CSC3)cc(OC)c1OC	i

# New compounds follow:
Structure	P. yoelii liver
CC1CN=C(c2ccc(NC(=O)c3ccc(C(=O)Nc4ccc(C5=NCC(C)N5)cc4)c(N)c3)cc2)N1 (stereo not drawn)	i
COc1ccc(Nc2nc(Nc3ccc(OC)cc3)c3[nH]ccc3n2)cc1	i
N#Cc1ccccc1N1CCCCC1	i
COc1cc(C(=O)NC2CC3CCC(C2)N3C2CC2)cc(OC)c1OC (stereo not drawn)	i
CCN(C(=O)Cn1c(=O)oc2ccccc21)c1ccc(F)cc1	i
Cc1cc(C)nc(NNc2c([N+](=O)[O-])cccc2[N+](=O)[O-])n1	i
COc1ccc(C2=C(Nc3ccc(C)c(C)c3)c3ccccc3C2=O)cc1	i
Cc1ccc(-c2c3c(nc4sc(C(=O)Nc5cccc(C)c5)c(N)c24)CCC3)cc1	i
CC(C)CNC(=O)c1cnc(NCCCN2CCCC2)nc1NCC1CCCCC1	i
COc1ccc(CCN2CC(CNC(=O)Cc3cccnc3)C(c3ccc(N(C)C)cc3)C2)cc1OC (stereo not drawn)	i

# Continuation.
Structure	P. yoelii liver
O=S1(=O)CCC(O)c2ccsc21 (stereo not drawn)	i
O=C(Nc1cccc(C(F)(F)F)c1)c1ccc(-c2cccs2)cc1	i
COc1cc(C=NNc2nc3ccccc3[nH]2)ccc1O	i
Cc1ccc(S(=O)(=O)NC(=O)Nc2ccc(N(C)C)cc2)cc1	i
O=C(Cn1c2ccccc2c(=O)c2cc([N+](=O)[O-])ccc21)Nc1ccc(F)c(Cl)c1	i
Cn1c(=O)c2c(nc3n(CCCO)c(C45CC6CC(CC(C6)C4)C5)cn23)n(C)c1=O	i
CSC1=NC(=Nc2c(C)cccc2C)C2(CCC(C(C)(C)C)CC2)N1c1ccc(Cl)cc1 (stereo not drawn)	i
CCOc1ccc2nc3cc(NCc4ccco4)ccc3c(N)c2c1	i
CC(C)CC(NC(=O)OC(C)(C)C)C(=O)NC(Cc1ccccc1)C(=O)OCc1ccccc1 (stereo not drawn)	i
O=C(NN=Cc1ccc(O)cc1O)c1ccncc1	i

# (listing goes on)
Structure	P. yoelii liver
Cc1cc(C)c(S(=O)(=O)N(C)CCCNc2ccnc3cc(Cl)ccc23)c(C)c1	i
Cc1cc(C)nc(SCc2cc(=O)c(OC(=O)c3ccccc3Br)co2)n1	i
CCC(C)OC(=O)C1=C(C)NC2=C(C(=O)CC(c3ccc(Cl)cc3)C2)C1c1ccccc1F (stereo not drawn)	i
O=C(c1ccc([N+](=O)[O-])cc1)N1CCC(c2nc3c(nnn3Cc3c(F)cccc3Cl)c(=O)[nH]2)CC1	i
CC(C=NNC(=O)c1ccco1)=Cc1ccccc1	i
CCCCCCCCCCCC(OC(=O)C(CCCCN(O)C(C)=O)NC(=O)c1coc(-c2ccccc2O)n1)C(C)C(=O)NC1CCCCN(O)C1=O (stereo not drawn)	i
COc1ccc(C=NNc2nc(Nc3ccc([N+](=O)[O-])cc3)nc(N3CCN(C)CC3)n2)cc1OC	i
Cc1cccc(Nc2nc3nonc3nc2NN=Cc2cccs2)c1C	i
N#CC(=Cc1cn(Cc2ccccc2Cl)c2ccccc12)c1nn(CCO)c(N)c1C#N	i
C=CCc1cccc(C=NNc2nc3ccccc3[nH]2)c1O	i

# Further results.
Structure	P. yoelii liver
c1ccc(Cc2nc(NCc3ccc4c(c3)OCO4)c3c4c(sc3n2)CCCC4)cc1	i
CC[n+]1c(C=Cc2ccc(N(C)C)cc2)sc2cc(NC(C)=O)ccc21	i
OCCNc1nc(Nc2ccc(F)cc2)nc2ccccc12	0.136µM*
CCN1CCN(c2cc(C)c3cc(NC(=O)/C=C/c4cccc(Cl)c4)ccc3n2)CC1	i
COc1cc(NC(C)CCCN(Cc2ccc(OC)c(OC)c2)C(=O)c2ccccc2)c2ncccc2c1 (stereo not drawn)	i
CCCCCCOc1ccc(C(C)=NNC2=NCCN2)cc1[N+](=O)[O-]	0.784µM*
CC(C)CC[n+]1ccccc1/C=C/c1ccc(N(C)C)cc1	i
O=C(NCCCCNc1ccnc2cc(Cl)ccc12)c1ccco1	i
COc1ccccc1N1C(=N)S/C(=C/c2ccc(N(C)C)cc2)C1=O	i
CC(C)NC(=O)[C@@H]1C[C@@H](NCc2cccnc2)CN1Cc1ccc2ccccc2c1	i

# Continued.
Structure	P. yoelii liver
COc1ccc(-n2c(=S)[nH]c3cc(C(=O)Nc4cccc(C)c4)ccc3c2=O)cc1OC	i
C[N+](C)(CC#Cc1ccccc1)CC#Cc1ccccc1	i
C=CC[n+]1ccc(/C=C/c2ccccc2)c(C)c1	i
Cc1cc(C)cc(Nc2cc(C)nc3ncnn23)c1	i
O=c1c2c([nH]c3ccccc13)CCCC2	0.5µM*
Cc1ccccc1C=NNc1nc2ccccc2[nH]1	i
CC1=C(C(=O)OC(C)C)C(c2cccc([N+](=O)[O-])c2)C2=C(CCCC2=O)N1 (stereo not drawn)	i
c1ccc(Cn2nnnc2CN2CCN(C(c3ccccc3)c3ccccc3)CC2)cc1	i
COc1ccc(NC(=O)c2cc3cc(C4(O)CCN(Cc5cc6ccccc6[nH]5)CC4)ccc3o2)cc1	i
CCOC(=O)CSc1nc2c(sc(=S)n2-c2ccc(Cl)c(C)c2)c(=O)n1-c1ccccc1OC	i

# Continuation.
Structure	P. yoelii liver
CCC(=O)N1CCOc2c(cc(-c3csc4ccccc34)cc2OCCc2ccccn2)C1	i
CCCCCCCCC(=O)N1CCN(C(CC)c2nc3ccccc3c(=O)n2C)CC1 (stereo not drawn)	i
C=CCn1c(SCC(=O)c2cc(C)n(-c3ccccc3F)c2C)nc2sc3c(c2c1=O)CCCC3	i
CC(=O)N1CCc2cc(Br)cc(S(=O)(=O)N3CCCC(C)C3)c21 (stereo not drawn)	i
CCCCOc1cccc(NC(=O)CSC2=C(C#N)C(c3ccccc3)C(C(=O)Nc3ccccc3)=C(C)N2)c1 (stereo not drawn)	i
COc1cc(NC(C)CCCN(Cc2ccc(Cl)cc2)C(=O)Nc2ccccc2F)c2ncccc2c1 (stereo not drawn)	i
COc1cc(C(=O)NC(c2cccs2)c2cc(Cl)c3cccnc3c2O)cc(OC)c1OC (stereo not drawn)	i
CN1/C(=C\C=C\C2=[N+](C)c3ccc4ccccc4c3C2(C)C)C(C)(C)c2ccccc21	i
Fc1ccc2[nH]c3c(N4CCN(C(c5ccccc5)c5ccccc5)CC4)ncnc3c2c1	i
COc1cc(NC(C)CCCN(Cc2ccc(OC)c(OC)c2)C(=O)CC(C)CC(C)(C)C)c2ncccc2c1 (stereo not drawn)	i

# New compounds follow.
Structure	P. yoelii liver
COC(=O)CSc1nnc2c(n1)[nH]c1c(OC)ccc(Cl)c12	i
CCCCCCC(NC(=O)OCc1ccccc1)S(=O)(=O)c1ccc(C)cc1 (stereo not drawn)	i
OCCCNc1cc(-c2ccccn2)nc(-c2ccccn2)n1	i
CCN(CC)CCNc1ncnc2c1[nH]c1ccc(Br)cc12	i
CCC(C)OC(=O)C1=C(C)NC2=C(C(=O)CC(c3ccc(Cl)cc3)C2)C1c1ccc(Cl)cc1 (stereo not drawn)	i
CCn1c(C=CN(C(C)=O)c2ccccc2)[n+](CC)c2ccc(Cl)cc21	i
Cc1nc2c(C#N)c(C)nn2c(C)c1Cc1cccc(F)c1	i
CCCC(=O)Oc1ccccc1-c1nc2ccccn2c1NC(C)(C)CC(C)(C)C	i
O=C(NCCC(c1ccccc1)c1ccccc1)c1cccc([N+](=O)[O-])c1	i
CCOC(=O)C1=C(O)/C(=C\c2cc(C)n(-c3ccccc3C(F)(F)F)c2C)N=C1C	i

# Additional results
Structure	P. yoelii liver
CC(=O)N(C1=C(N(C)C)C(=O)c2ccccc2C1=O)c1ccc(Cl)c(Cl)c1	i
COc1cccc(OC)c1C(=O)Nc1cc(C(F)(F)F)ccc1Cl	i
CN(C)[C@@H]1CCN(Cc2cccc(Cl)c2)C[C@@H]1CCC(=O)NCCCN1CCOCC1	i
O=C(O)c1ccc(NC(=O)c2ccc(N3C(=O)C4C5C=CC(C5)C4C3=O)cc2)cc1 (stereo not drawn)	i
COc1ccc(-c2c[n+](Cc3ccccc3Cl)c3n2CCC3)cc1	i
Cc1occc1C(=O)NN=CC(Cl)=Cc1ccccc1	i
COc1ccc(CNC2CCN(Cc3ccccc3)CC2)cc1OCc1ccccc1	i
COc1cc(NC(C)CCCN(Cc2ccccc2OC)C(=O)Nc2cccc(F)c2)c2ncccc2c1 (stereo not drawn)	i
CN(CCCNc1ccnc2cc(Cl)ccc12)S(=O)(=O)c1cc(Cl)ccc1Cl	i
CCOC(=O)C1=C(C)N=c2sc(=Cc3cc(Cl)ccc3O)c(=O)n2C1c1ccc2c(c1)OCO2 (stereo not drawn)	i

# Going on with the list.
Structure	P. yoelii liver
COc1ccc(C2(C(=O)NCc3ccccc3Cl)CCCC2)cc1OC	i
O=[N+]([O-])c1ccc(-c2csc(CO)n2)cc1	i
CCOC(=O)c1cnc2ccc(OCC)cc2c1NCC1CCCN1CC (stereo not drawn)	i
COc1ccc(OC)c(-c2ccc(O)c(CNCCc3cccc(F)c3)c2)c1	i
Cc1cc(C)cc(NC2=C(c3ccccc3)C(=O)c3ccccc32)c1	i
Cc1ccc(C2CC(C(F)(F)F)n3ncc(C(=O)Nc4ccc(Cl)cc4)c3N2)cc1 (stereo not drawn)	i
Cc1ccccc1OCC(O)Cn1c(NC2CCCCC2)nc2c1c(=O)[nH]c(=O)n2C (stereo not drawn)	i
O=C1C2C(C(=O)N1c1ccc(Cl)c(C(F)(F)F)c1)C1(c3ccccc3)C(=O)C2(c2ccccc2)C(c2ccccc2)=C1c1ccccc1 (stereo not drawn)	i
CCOC(=O)C1=C(c2ccccc2)N=c2sc(=Cc3cccnc3)c(=O)n2C1c1c(OC)ccc2ccccc12 (stereo not drawn)	i

# Looked up by structure from the list above:
Structure	P. yoelii liver
CCN(C(=O)Cn1c(=O)oc2ccccc21)c1ccc(F)cc1	i
Cc1cc(C)c(S(=O)(=O)N(C)CCCNc2ccnc3cc(Cl)ccc23)c(C)c1	i
